Screening results: PubChem BioAssay, National Center for Advancing Translational Sciences (NCATS)
MARV entry inh – qHTS for inhibitors of binding or entry into cells for Marburg Virus. Marburg virus pseudotyped entry inhibition, cell reporter; control for the full effect not named in the record; about a third of the inactives were read at about 46 µM. Potency, µM (titrated, usually from 37.8 µM), inactives show at the top dose activity change, negative = inhibition, most hits filed as inhibitors. 300,000 compounds, 1.8% hits; active = well fitted inhibition curve with a large enough effect; inconclusive = small, poorly fitted or top-dose-only effect, or effect the other way; inactive = flat fitted curve, though single readings scatter; tested in HEK293 cells; about a fifth of its hits are not listed in these tables; note: % is set by controls: 0 for no effect and ±100 for the full control effect; luciferase read-out
RE007 growth inh – qHTS Assay for Inhibitors of the HIV-1 protein Vpr; S. pombe RE007 Vpr strain, BacTiter-Glo ATP luminescence, 24 h; control for the full effect not named in the record; 360,000 compounds, 0.21% hits; Potency, µM (titrated, usually from 92.2 µM), for inactives: at the highest dose activity change, negative = less growth; active = well fitted falling curve with a large enough effect; inconclusive = small, poorly fitted or top-dose-only effect; inactive = no such curve, though single readings can be large or run the other way;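 note: % is set by controls: 0 for no effect and ±100 for the full control effect; nearly all actives have a fitted effect of over 50% in size; the assay follows cell death caused by Vpr and the record does not say whether a fall means rescue or toxicity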
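Fission yeast RE007 carrying one integrated HIV-1 vpr copy, seeded at OD 0.01 in PMG+AL medium with 23 nL pinned compound. Grown 24 h at 30 degrees; viability read by BacTiter-Glo luminescence after 5 min.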
Cruzain noTriton – qHTS Assay for Promiscuous and Specific Inhibitors of Cruzain (without detergent); 200,000 compounds, 2.3% hits; purified cruzain, Z-FR-AMC fluorescence, no detergent; Cruzipain (Trypanosoma cruzi), P25779; AID 1476, 2009; Potency, µM, inactives show max response, negative = inhibition, hits mostly inhibitors;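 note: plate controls were enzyme without inhibitor for no effect and buffer without enzyme for full effect; nearly all actives have a fitted effect of over 40% in size; top concentration of the series not given in the record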
Target sequence (P25779 123-467 limits assumed): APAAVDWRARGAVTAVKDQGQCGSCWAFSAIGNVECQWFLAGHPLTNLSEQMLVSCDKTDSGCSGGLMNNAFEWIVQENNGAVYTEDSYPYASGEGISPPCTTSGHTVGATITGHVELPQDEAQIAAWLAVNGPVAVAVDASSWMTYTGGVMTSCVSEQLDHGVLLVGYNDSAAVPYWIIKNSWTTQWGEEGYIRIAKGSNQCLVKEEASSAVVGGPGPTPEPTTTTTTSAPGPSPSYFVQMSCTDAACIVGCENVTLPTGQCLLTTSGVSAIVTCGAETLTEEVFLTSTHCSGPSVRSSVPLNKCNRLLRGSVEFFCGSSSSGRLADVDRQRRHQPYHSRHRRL
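Purified cruzain at 1.5 nM, pre-incubated 15 min with compound at room temperature in 100 mM sodium acetate pH 5.5, 5 mM DTT, 0.00005% Triton X-100. Reaction started with 2 uM Z-FR-AMC; AMC fluorescence increase over 60 s gives rate.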
StopGo reporter – High Throughput Screening for Foot and Mouth Disease Virus Antivirals; human cells with a luciferase reporter of 2A StopGo recoding; control for the full effect not named in the record; Potency, µM (highest dose often 57.9 µM), inactives show at the highest dose signal change, negative = less light; 410,000 compounds, 1.2% hits; active = well fitted falling curve with a large enough effect; inconclusive = small, poorly fitted or top-dose-only effect; inactive = no such curve, though single readings can be large or run the other way; tested in HEK293T cells; note: % is set by controls: 0 for no effect and ±100 for the full control effect; nearly all actives have a fitted effect of over 45% in size; luciferase light after 4 h
LASV entry inh – qHTS for Inhibitors of binding or entry into cells for Lassa Virus. Lassa virus pseudotype entry inhibition, cell reporter; control for the full effect not named in the record. 300,000 compounds, 1.2% hits. Potency, µM (titrated, usually from 37.9 µM), without a hit: top-dose activity change, negative = inhibition, most hits filed as inhibitors; active means well fitted inhibition curve with a large enough effect; inconclusive means small, poorly fitted or top-dose-only effect, or effect the other way; inactive means flat fitted curve, though single readings scatter; tested in HEK293 cells; note: % is set by controls: 0 for no effect and ±100 for the full control effect; nearly all actives have a fitted effect of over 50% in size; luciferase read-out
Cruzain Triton – qHTS Assay for Promiscuous and Specific Inhibitors of Cruzain (with detergent); AID 1478, 2009; 200,000 compounds, 0.43% hits; Cruzipain (Trypanosoma cruzi), P25779; Potency, µM, without a hit: max response, negative = inhibition, usual class: inhibitors; purified cruzain, Z-FR-AMC fluorescence, 0.01% Triton;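 note: plate controls were neutral wells for no effect and buffer without enzyme for full effect; nearly all actives have a fitted effect of over 40% in size; top concentration of the series not given in the record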
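Read-out: AMC fluorescence (360 nm excitation, 450 nm emission), four reads over 2 min, first-to-third difference used. Conditions: cruzain 1.5 nM, Z-FR-AMC 2 uM, pH 5.5 acetate, 5 mM DTT, 0.01% Triton X-100.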
SARS PLP yeast – qHTS of Yeast-based Assay for SARS-CoV PLP. 330,000 compounds, 0.19% hits. AID 485353, 2010. S. cerevisiae expressing SARS-CoV PLpro, growth rescue; control for the full effect not named in the record. Potency, µM (top dose mostly 32.9 µM), without a hit: at the highest dose activity, positive = growth rescue; active means well fitted rising curve with a large enough effect; inconclusive means small, poorly fitted or top-dose-only effect; inactive means no such curve, though single readings can be large or run the other way; note: 0% is about no effect; nearly all actives have a fitted effect of over 55% in size; growth read by luminescence after 48 h
NS1 inh – qHTS Assay for Inhibitors of Influenza NS1 Protein Function; S. cerevisiae slowed by influenza A NS1, growth recovery by OD600; Potency, µM (titrated, usually from 46.1 µM), for inactives: top-dose activity, positive = more growth; 270,000 compounds, 0.4% hits; AID 2326, 2010; active means well fitted rising curve with a large enough effect; inconclusive means small, poorly fitted or top-dose-only effect; inactive means no such curve, though single readings can be large or run the other way; note: nearly all actives have a fitted effect of over 50% in size
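In this qHTS, NS1 from influenza A is expressed in budding yeast, where it slows growth. Cells are switched from glucose to 2% galactose medium (pH 6.0, -URA), treated with compound, and growth recovery is read at OD600.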
The depositor's hits bear a star; ? = inconclusive; . = no result given; & = joins results of further samples; [ ] = dose if it differs, or a comment. Unless noted, calls come from the whole dose curve; as a rule, active = well fitted curve in the direction sought with a large enough effect; inconclusive = small, poorly fitted or top-dose-only effect, or another doubt; inactive = no such curve, though single readings can be large; an effect the other way counts as inactive or inconclusive. Potency is the fitted concentration of half-maximal effect.

SMILES	MARV entry inh	RE007 growth inh	Cruzain noTriton	StopGo reporter	LASV entry inh	Cruzain Triton	SARS PLP yeast	NS1 inh
CCCCC1C(=O)CC[C@H]2[C@@H]1CC(=O)[C@@H]2C/C=C\CCCC(=O)O (stereo partly drawn)	-17%	-3%	1%	?	-17%	1.2%	6%	-3%
Cc1cccc(Cl)c1NC(=S)N1CCN(c2ccc([N+](=O)[O-])cn2)CC1	?	22%	.	?	-2%	.	2%	2%
COc1ccc(F)cc1S(=O)(=O)NCCc1c(C)[nH]c2c(Cl)cccc12	.	.	8%	29%	?	-14%	.	.
CCOC(=O)CC(=O)Nc1nc2ccccc2s1	2%	-5%	-10%	-1%	2%	1.2%	0%	-7%
CC(C)C(=O)NCCSc1c[nH]c2ccccc12	.	5%	-2%	-21%	.	-5.0%	2%	-2%
Cc1ccc2occ(C3NC(C(=O)O)CS3)c(=O)c2c1 (stereo not drawn)	-17%	-9%	7%	-5%	-16%	-3.3%	-37%	-29%
CC(CCCC(C)(C)O)NCc1cn[nH]c1-c1ccc2c(c1)OCO2 (stereo not drawn)	3%[46.1 µM]	1%	.	-15%	11%[46.1 µM]	.	0%	1%
O=C(NCCCO)C(=O)NCC1OCCCN1S(=O)(=O)c1cccs1 (stereo not drawn)	8%	6%	.	-14%	17%	.	-1%	1%
Cc1cc([N+](=O)[O-])nn1CC(=O)N1N=C(C(F)F)CC1(O)C(F)F (stereo not drawn)	7%	.	-2%	-16%	-4%	-0.8%	3%	2%
COc1ccc(NC(=O)Cc2ccc(C)c(C)c2)cc1Cl	12%[46.1 µM]	10%	.	10%	-9%	.	1%	.
CC1(CC(=O)Nc2ccccc2)NC(=S)N(c2ccccc2)N1 (stereo not drawn)	12%[46.1 µM]	0%	.	54%[activator]	16%	.	1%	-8%
CC(C)CC(=O)C1CCCN(C(=O)c2ccc3oc(Cc4ccccc4)nc3c2)C1 (stereo not drawn)	-7%[46.1 µM]	7%	.	-23%	?	.	-3%	-34%
O=C(NNC(=O)c1cc(-c2ccccc2Cl)nc2ccccc12)c1csc(N2CCOCC2)n1	15%	-5%	.	-7%	-6%	.	7%	.
COc1ccc(NC(=O)c2ccccc2-c2ccccc2)c(C)c1	.	5%	.	-14%	.	.	-1%	-8%
COC(=O)c1cccnc1-n1c(=O)c2cccnc2n(Cc2ccc(Cl)cc2)c1=O	1%	-1%	?	-7%	-3%	-1.9%	1%	-1%
CN(CC(=O)Nc1cccc(F)c1)C(=O)c1ccc(-c2ccc(Cl)cc2)o1	.	-7%	.	-2%	.	.	-19%	-55%
C/C(=N/NC(=O)c1cccc(Br)c1)C1CC2CCC1C2 (stereo not drawn)	.	-16%	.	-16%	.	.	-5%	-8%
CCN1C(=O)CSc2ccc(C(=O)NCc3ccccc3)cc21	.	-1%	.	28%	.	.	-2%	-6%
Cc1ccc(-n2ncc(C(=O)NCc3ccc4c(c3)OCO4)c2C2CCN(C(=O)OC(C)(C)C)CC2)cc1C	.	.	-22%	-17%	?	-9.3%	.	.
O=C(c1ccc(Cl)cc1)c1ccc(OCC(O)CN2CCOCC2)cc1 (stereo not drawn)	-29%	0%	-5%	-49%	-13%	-1.9%	-2%	-10%
CCOc1ccccc1NC(=O)C(=O)NCCc1sc2nc(-c3ccc(OC)cc3)nn2c1C	.	.	-9%	13%	18%[46.1 µM]	-1.8%	.	.
C/C(Cl)=C\C[N+](C)(C)CC(=O)OCCc1ccccc1	.	4%	.	-10%	.	.	0%	4%
Nc1ccc(C2(c3ccc(N)cc3)c3ccccc3C(=O)c3ccccc32)cc1	?	1%	.	-8%	?	.	.	.
COc1ccc(C2CC(c3ccc(Cl)cc3Cl)Nc3nc(N)nn32)cc1 (stereo not drawn)	.	5%	?	-22%	.	-8.2%	4%	?
COc1ccc(OC)c(CNC(=O)C2CCCCN2S(=O)(=O)c2ccc(F)cc2)c1 (stereo not drawn)	.	.	3%	-9%	4%[46.1 µM]	-2.0%	.	.
SMILES	MARV entry inh	RE007 growth inh	Cruzain noTriton	StopGo reporter	LASV entry inh	Cruzain Triton	SARS PLP yeast	NS1 inh
CCN(c1cccc(C)c1)S(=O)(=O)c1nnc(NC(=O)c2cccs2)s1	.	.	10%	37%[activator]	10µM*	-2.1%	.	.
Cc1ccc(CNC(=O)C2CC(c3ccccc3C(F)(F)F)=NO2)cc1 (stereo not drawn)	.	-6%	.	14%	.	.	-4%	0%
O=C(Cc1cccs1)Nc1ccc(S(=O)(=O)N2CCCCC2)cc1	8%[46.1 µM]	22%	-28%	9%	?	-21%	-5%	?
CC1CC(C)(C)NC(=S)N1CC(=O)NCc1ccc(Cl)cc1 (stereo not drawn)	0%	-7%	-13%	1%	?	0.3%	19%	-1%
CCN(CC)C(=S)NC(=O)c1cccnc1	0%[46.1 µM]	3%	.	2%	-19%[46.1 µM]	.	1%	4%
COc1ccc(NC(=O)CSc2cn[nH]n2)c(OC)c1	15%[46.1 µM]	9%	.	-1%	-3%[46.1 µM]	.	-1%	19%
CCn1c(CSc2nc3ccccc3s2)nnc1SCC(N)=O	0%	12%	0%	23%	2%	-2.8%	2%	-4%
C=CCNc1nc(C(=O)OCC(=O)c2ccc(Cl)cc2)cs1	7%[46.1 µM]	27%	.	10%	8%	.	-1%	.
CCOc1ccc(Nc2cc(C)nc3ccc(C)cc23)cc1	?	?	.	?	11µM*	.	.	.
Cc1ccc(Cn2c(SCC(C)C)nc3c2c(=O)[nH]c(=O)n3C)cc1	30%	-16%	10µM*	-14%	-18%	0.9%	4%	-1%
Cc1c(C(=O)NCC(c2ccco2)N2CCCC2)sc2ccccc12 (stereo not drawn)	11µM*	7%	.	14%	-1%[46.1 µM]	.	.	.
COc1ccccc1CNC(=O)CCC1N=C2c3ccccc3N=C(SCC(=O)NCC3CCCO3)N2C1=O (stereo not drawn)	-4%[46.1 µM]	3%	.	-9%	?	.	3%	3%
CC(C)(C)NS(=O)(=O)c1ccc(NC(=O)c2cc(-c3ccccc3)nc3ccccc23)cc1	7%	8%[3.69 µM]	-10%	10%	8%	2.8%	-4%	-1%
CNc1ccc(Oc2nc([N+](=O)[O-])nn2C)cc1	17%	6%	.	-11%	6%	.	-1%	.
CCCCNS(=O)(=O)c1cc2c3c(c1)CCN3C(=O)CC2	.	3%	.	35%[activator]	.	.	-2%	2%
O=C(Nc1cccc(OCC(=O)N2CCOCC2)c1)c1cccc(Cl)c1	.	-1%	.	-10%	.	.	-2%	-8%
COc1ccc(CCNC(=O)C(=O)NCc2ccccn2)cc1	.	10%	.	-14%	.	.	0%	-5%
CC(=O)c1ccc(NC(=O)/C=C/c2ccc(C)cc2)cc1	6%	-7%	-7%	8%	2%	-4.7%	-20%	-7%
c1ccc(CN2CCN(CCCNc3ccc4nnc(-c5ccccc5)n4n3)CC2)cc1	?	-15%	-4%	?	?	-2.2%	2%	-5%
O=C1C(=C(O)c2ccccc2)C(=O)c2ccccc21	20%	-24%	-8%	.	-5%	-1.9%	0%	-16%
N#Cc1cccc(NC(=O)N2CCC(c3nc4c(nnn4Cc4cccc(Cl)c4)c(=O)[nH]3)CC2)c1	0%&-4%	-23%	13%	?	4%	-2.6%	1%	-33%
CC(Nc1ncnc2sccc12)c1ccccc1 (stereo not drawn)	?	1%	.	?	-11%[46.1 µM]	.	-3%	-15%
Clc1ccc(-c2noc(CN3CCCC3)n2)cc1	?	15%	-1%	17%	11%	4.8%	1%	3%
CCCc1cc(=O)oc2c3c(cc(OCC(=O)N[C@@H](CSC)C(=O)O)c12)OC(C)(C)CC3	26%	-9%	.	15%	18%	.	3%	8%
C=CCSc1nnc(-c2sc(-c3ccccc3)nc2C)n1C	0%	-7%[3.69 µM]	-9%	24%	2%	-2.7%	-7%	-12%
SMILES	MARV entry inh	RE007 growth inh	Cruzain noTriton	StopGo reporter	LASV entry inh	Cruzain Triton	SARS PLP yeast	NS1 inh
CCOC(=O)/C=C1\CN(C(C)c2ccccc2)S(=O)(=O)c2ccccc21 (stereo not drawn)	.	-10%	.	21%	.	.	-2%	5%
CCOCCCNC(=O)Cn1nc(C)n2c(cc3cc(C)ccc32)c1=O	-13%[46.1 µM]	.	-7%	5%	.	-1.0%	.	.
Cc1ccccc1-c1nnc(SCC(=O)NCc2ccc3c(c2)OCO3)n1C	4%	5%	2%	6%	-8%	4.1%	-4%	6%
CN(C)C(=O)CSCc1c(Cl)cccc1Cl	10%[46.1 µM]	0%	-9%	-19%	11%	1.6%	-3%	-7%
CC(C)=CCCC(C)N(C=O)C(C)CCC=C(C)C (stereo not drawn)	29%	19%	.	?	4%	.	.	14%
CCOC(=O)C1(Cc2ccccc2C(F)(F)F)CCN(CCCn2cccn2)CC1	?	13%	.	-13%	?	.	-1%	2%
O=C(O)c1cccc([N+](=O)[O-])c1C(=O)Nc1ccc2ccccc2c1	.	-27%	.	7%	.	.	-4%	7%
O=C(Nc1cccc(C(F)(F)F)c1)c1cc[n+]([O-])cc1	-3%[46.1 µM]	-7%	.	-6%	4%	.	0%	2%
COc1cc2c(=O)c(S(=O)(=O)c3ccc(C(C)C)cc3)cn(Cc3ccccc3C)c2cc1OC	?	.	20%	-11%	-21%[46.1 µM]	-8.2%	.	.
O=C1c2ccccc2-c2c1cccc2C(=O)N1CCN(C(=O)c2ccco2)CC1	5%	16%	-8%	6%	2%	-1.9%	4%	-5%
Cc1cc(Cl)c(OCCCn2cncn2)c(Br)c1	3%[46.1 µM]	0%	9%	-4%	-1%	-0.2%	-4%	-15%
CN(CCOc1ccc(Cl)cc1)CC(=O)Nc1ccc(OC(F)(F)F)cc1	.	-14%	.	?	.	.	-9%	-34%
C=CCn1c(=N)n(CC(=O)c2cccc([N+](=O)[O-])c2)c2ccccc21	0%	23%	.	1%	?	.	-1%	-5%
